NPYLR7 agonist = agonists of mosquito NPYLR7 receptor, primary screen, cell-based, Aedes aegypti, calcium fluorescence, mosquito biting behavior; activation, % at 10 µM; HEK293T NPYLR7/Galpha15, GCaMP6s calcium fluorescence; Aedes aegypti neuropeptide Y-like receptor 7 (NPYLR7); AID 1259423, 2018; 0.15% of 270,000 active; in the data active means activation above about 40%;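 further: 0% = vehicle and 100% = reference agonist at the receptor; some compounds past the cut are filed as inactive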
NPYLR7 agonist max-min = further read-out of NPYLR7 agonist, marked with its call; activation, %; measured here: Max-Min RFU normalised activation; some inactives read as strong as hits;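 span of the calcium signal over five minutes; 0% = vehicle and 100% = native peptide agonist; compound fluorescence can raise it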
Active calls of the source: *; & = joins results of further samples. These rows are one share of the data; count on the stated rates, not on these rows.

Compound	NPYLR7 agonist	NPYLR7 agonist max-min
Cc1onc(-c2ccccc2Cl)c1C(=O)N[C@H](c1nnc2c(C(F)(F)F)cccn12)C(C)C	-3.3	-13.2
CC1(C)OC(=O)C(=CNc2ccc(S(N)(=O)=O)cc2)C(=O)O1	-1.8	17.3
CCCSc1ncccc1C(=O)NC1CCN(C(=O)OCC)CC1	-0.1	-2.0
CC1CCCN(C(=O)CN2C(=O)NC3(CCCCCCC3)C2=O)C1 (stereo not drawn)	-2.6	5.8
COc1ccc(-c2ccc(C(=O)NC3CCc4ccccc43)s2)c(OC)c1OC (stereo not drawn)	28.4	42.7
CC(C)(C)C(=O)NCCCN1CCC(O)CC1	-1.2	-2.0
O=C(Nc1ccc2c(c1)OCCO2)C1CCN(C(=O)c2ccc(F)cc2)CC1	4.8	1.7
COc1ccc(C(=O)N2N=C3CCCCCC3C2(O)C(F)(F)F)cc1OC (stereo not drawn)	0.1	-0.4
COC(=O)CSc1nc(-c2ccccc2)cc(-c2ccccc2OC)c1C#N	-1.0	-8.2
c1ccc(N2CCC(N3CCC4(CCNCC4)CC3)CC2)cc1	4.9	4.7
CCc1ccc(-c2cc3c(SCC(=O)Nc4cccc(C)c4)nccn3n2)cc1	-0.7	-3.7
c1ccc(-n2nccc2-c2nccn2CCc2ccccn2)cc1	5.8	2.4

Looked up above.
NPYLR7 agonist with Cc1onc(-c2ccccc2Cl)c1C(=O)N[C@H](c1nnc2c(C(F)(F)F)cccn12)C(C)C stands at -3.3
NPYLR7 agonist with COC(=O)CSc1nc(-c2ccccc2)cc(-c2ccccc2OC)c1C#N stands at -1.0
NPYLR7 agonist with c1ccc(-n2nccc2-c2nccn2CCc2ccccn2)cc1 stands at 5.8

(continued)
Compound	NPYLR7 agonist	NPYLR7 agonist max-min
COc1cc(C=C2C(=O)NC(=S)NC2=O)ccc1OCCSc1ccc(C)cc1	-8.8	-13.3
COc1ccc(C(NC(=O)C2CCN(CC3CC3)CC2)c2ccccn2)cc1 (stereo not drawn)	14.4	4.6
CN1C(=O)C2(CCCN(C(=O)CCc3cc(=O)[nH]o3)C2)c2ccccc21 (stereo not drawn)	-0.3	-1.3
COc1ccc(C)cc1C(=O)NCCCC(=O)N(C)C	0.1	-2.3
COCCN(CC(=O)N(CCc1c[nH]c2ccccc12)Cc1ccccc1)C(=O)c1ccc(C(C)(C)C)cc1	-1.8	-0.2
CN(C(=O)Nc1ccc(-c2nccs2)cc1)C1CCN(C2CC2)C1 (stereo not drawn)	5.9	4.5
CCOC(=O)C1(C)CCCCN1C(=O)c1cc(C)on1 (stereo not drawn)	-1.5	-2.7
Cc1nn(CC(=O)N2CCN(c3ccccc3)CC2)c(=O)c2c1cnn2-c1ccc(F)cc1	1.7	1.6
Cc1nc2ccc(C(=O)N3CCCCC3)cn2c1N(C)C(=O)CCc1ccccc1	9.8	14.3
COc1ccccc1-c1cccc(NC(=O)NCC2(O)CCC2)c1	7.8	3.8
CC(CC(=O)NCc1ccc(C(=O)N(C)C)cc1)C1CCCCC1 (stereo not drawn)	3.6	1.2
Cc1cccc(Oc2ccc(C(=O)NCC3(O)CCCNCC3)cc2)c1 (stereo not drawn)	4.8	3.0

Continued:
Compound	NPYLR7 agonist	NPYLR7 agonist max-min
CCOc1ccccc1OCc1ncnn1C	10.9	10.1
O=C(Nc1ccc2c(c1)CN(C1CCOCC1)CC2)C1CCCO1 (stereo not drawn)	9.9	3.3
COCCn1c(SCc2ccc(Cl)cc2)nnc1-c1cc(-c2ccccc2)nc2ccccc12	-3.8	-6.5
CN(CCNC(=O)C(F)(F)F)C(=O)NC1CCCCC1	2.5	-9.6
CCOCCOc1nc(-c2cccc(C(F)(F)F)c2)n(-c2cccc(NC(=O)c3ccc(C)cc3)c2)n1	5.4	0.2
COc1cccc(C(C)N(C)C(=O)c2ccnn2C(F)F)c1 (stereo not drawn)	0.8	0.9
COc1ccc(Nc2ncnc3[nH]ncc23)cc1OC	15.1	15.2
Cc1cncc(N2CCC[C@H]2CO)n1	-4.5	-7.7
O=C(CSc1c[nH]c2ccccc12)N1CCCCC1	-1.2	-1.7
Cc1nn(CC(=O)N2CCCC2)c(=O)c2cc3occc3n12	4.4	0.7
CCOC(=O)CCc1c(C)nc2ncnn2c1NCC1CCCCC1	-2.0	-4.8
Cc1ccsc1C(=O)N1CCC1(C)C(=O)NS(=O)(=O)c1ccccc1C(F)(F)F (stereo not drawn)	0.8	0.5

Next structures:
Compound	NPYLR7 agonist	NPYLR7 agonist max-min
CC(C)N1CCc2cc(CN3CCN4C(=O)CNC(=O)C4C3)ccc21 (stereo not drawn)	3.3	0.5
NC(=O)c1ccc(CN(Cc2nc(-c3cccs3)no2)C2CC2)cc1	5.7	1.2
COc1cccc(-c2cnccn2)c1C(=O)N(C(C)C)C(C)C	1.0	-2.2
CCn1ccnc1CN(C)c1cc(OC)ncn1	9.0	-3.9
O=C(COc1cccc(Cl)c1)N1CCN(c2nccc(-c3ccco3)n2)CC1	1.8	4.6
O=c1nc2c(-c3ccccc3Cl)n[nH]n2c2ccccc12	-11.0	-16.1
Cc1cn2c3c(=O)n(CCCNc4ccc(F)cc4)c(=O)n(C)c3nc2n1-c1ccc(F)cc1	0.8	9.8
COc1ccc(-c2ccc(SCc3cn4ccccc4n3)nn2)cc1	24.4	23.8
Cc1sc2ncnc(N3CCC(C)CC3)c2c1C	2.7	-0.6
COc1ccccc1N1CCN(c2nc(Nc3ccc(C)cc3)c3cn[nH]c3n2)CC1	0.5	-0.9
c1cc(CN2CCCC2)cc(NCc2csnn2)c1	0.8	-1.8
CCCc1cc(C(=O)N2CCCC(C(=O)NCCCO)C2)n[nH]1 (stereo not drawn)	0.2	0.0

Two entries from above, with two lines to a compound.
Values run as follows: NPYLR7 agonist | NPYLR7 agonist max-min
- CC(C)N1CCc2cc(CN3CCN4C(=O)CNC(=O)C4C3)ccc21 (stereo not drawn)
    3.3 | 0.5
- NC(=O)c1ccc(CN(Cc2nc(-c3cccs3)no2)C2CC2)cc1
    5.7 | 1.2

(more compounds)
Compound	NPYLR7 agonist	NPYLR7 agonist max-min
COc1cc(C=NNP2(=O)C=C(c3ccccc3)OC(c3ccccc3)=C2)ccc1O	4.5	2.3
CCOC(=O)c1cc(-c2ccc(N3CCN(C(=O)c4c(C)noc4C)CC3)cc2)n(-c2ccccn2)n1	8.4	2.2
O=[N+]([O-])c1cc(S(=O)(=O)N2CCOCC2)ccc1NN=C1CCCCC1C1CCCCC1 (stereo not drawn)	-7.4	-9.2
Oc1ccccc1CN1CCCn2cccc2C1c1cccc(C(F)(F)F)c1 (stereo not drawn)	4.3	8.2
Cc1nn(CCNC(=O)c2cnc(-c3ccccn3)nc2)c(C)c1Cl	1.7	1.5
CC1Cc2ccccc2N1C(=O)Cn1c(=O)oc2ccccc21 (stereo not drawn)	-0.5	-6.0
CC1(c2cc(F)ccc2F)NC(=O)N(CC(=O)N2CCCC2)C1=O (stereo not drawn)	5.9	-0.5
NC(=S)Nc1cccc(Br)c1	10.3	6.3
CCC(=O)NCCc1cc2ccc(C)c(C)c2[nH]c1=O	3.0	-0.1
COc1cc(OC)cc(C(=O)Oc2ccccc2NC2=NS(=O)(=O)c3ccccc32)c1	3.8	0.3
COc1ccccc1-n1c(SCc2c(F)cccc2Cl)nc2c(c1=O)SCC2	8.1	8.4
CN(Cc1ccccc1)C(=O)Cc1ccccc1F	8.5	2.3

The results go on:
Compound	NPYLR7 agonist	NPYLR7 agonist max-min
O=C(CCN1CCOCC1)NN=C1C2CC3CC(C2)CC1C3	-1.5	19.6
Cc1cccc(COCC2CN(C(=O)c3ccc(F)c(F)c3)CCO2)c1 (stereo not drawn)	-15.2	-16.6
C/C(=N/NC(=O)c1c[nH]c2ccccc12)c1c(O)cc(C)oc1=O	1.6	6.7
COC(=O)c1ccc(COC(CN2CCN(S(=O)(=O)Cc3cccc(Cl)c3)CC2)c2cccc(OC)c2)cc1 (stereo not drawn)	-4.0	3.7
Fc1ccc(C2Oc3ccccc3C3CC(c4ccccc4)=NN32)cc1 (stereo not drawn)	-0.6	-0.9
CCOc1ncccc1CN1CCC(C(=O)NCCc2cccc(Cl)c2)CC1	12.7	6.4
Cn1ccnc1C1CCCCN1C(=O)CC1(c2cccc(F)c2)CC(=O)N(Cc2cccnc2)C1=O (stereo not drawn)	0.1	-4.8
Cc1ccc(-c2cn3c(n2)sc2cc(C)ccc23)cc1	2.8	0.3
CCCCCCCCc1ccc(C(=O)N2CCC(c3c[nH]c4c(C)cccc34)CC2)cc1	9.8	20.1
COc1ccc(C)cc1NC(=O)CSc1nc2c(-c3ccccc3)c[nH]c2c(=O)n1C	-0.6	-3.6
CCOc1ccnc2c1c(=O)n(Cc1cccnc1)c(=O)n2C	-5.4	-6.4
COCCNC(=O)C(NC(=O)C1CCCC1)C1CCN(C(=O)c2ccc(F)cc2)CC1 (stereo not drawn)	-6.8	-8.8

An excerpt of these results, with two lines to a compound:
Below each SMILES: NPYLR7 agonist	NPYLR7 agonist max-min
- COc1ccc(C)cc1NC(=O)CSc1nc2c(-c3ccccc3)c[nH]c2c(=O)n1C
→ -0.6	-3.6
- O=C(CCN1CCOCC1)NN=C1C2CC3CC(C2)CC1C3
→ -1.5	19.6
- Cc1sc2ncnc(N3CCC(C)CC3)c2c1C
→ 2.7	-0.6

More compounds
Compound	NPYLR7 agonist	NPYLR7 agonist max-min
O=C(Cn1c(O)c(N=Nc2ccccc2[N+](=O)[O-])c2cc(Br)ccc21)Nc1ccccc1	-4.5	-6.8
Cc1cccc(NC(=O)CSc2nc(=O)n(CCCN(C)C)c3c2CCCC3)c1	1.2	8.5
O=C(c1ccc(C(F)(F)F)o1)N1CCC2(CC1)Nc1ccccc1C(=O)N2c1cccnc1	-0.4	26.6
O=C(Cc1csc(-c2cc(Br)cs2)n1)N1CC2CCCCC2C1 (stereo not drawn)	8.2	-1.4
CC1(C(=O)Nc2cccc(Oc3ccccc3)c2)CCN1CCOc1ccccc1 (stereo not drawn)	9.1	2.7
CCc1ccc(CN(C)C(=O)c2sc(C(C)C)nc2C)nc1	-0.4	-4.2
COc1ccc(OC)c(-n2c(CNC(=O)c3ccco3)nnc2SCC(=O)Nc2nnc(C)s2)c1	4.9	1.5
NNc1nc(N2CCCCC2)nc(N2CCOCC2)n1	6.4	-4.2
CCOC(=O)N1CCN(C(c2cccc(F)c2)c2c(O)cc(C)n(CCOC)c2=O)CC1 (stereo not drawn)	8.8	3.8
Cc1[nH]nc(NS(=O)(=O)c2ccc(F)cc2Cl)c1C	1.5	-1.2
Cc1ccc(CNS(=O)(=O)c2c(N)n(C)c(=O)n(C)c2=O)cc1	1.9	-0.3
CCc1nc2sc3c(c2c(=O)n1CCO)CCC3	6.9	5.1

Next entries follow:
Compound	NPYLR7 agonist	NPYLR7 agonist max-min
CC(C)(C)c1nn(CN2CCC(C(=O)NCc3ccccc3)CC2)c(=S)o1	2.4	-0.2
CN1C(=CC(=O)COC(=O)/C(C#N)=C\c2ccc(Cl)cc2)C(C)(C)c2ccccc21	-2.7	-11.2
COCCNC(=O)CSc1nnc(C2CC2)o1	7.1	11.1
CCCCCc1nc2nc(C)cc(C)n2c1NC1CCCCC1	4.3	2.3
CC(=O)c1ccc(OCc2ccccc2)c(OCc2ccccc2)c1O	-1.4	-5.1
CC(C)C(C)N(Cc1ccc(Cl)cc1)Cc1nc(C(=O)NCCc2ccccn2)co1 (stereo not drawn)	17.8	19.4
Cc1c(C)n2c3c(=O)n(Cc4ccc(Br)cc4)c(=O)n(C)c3nc2n1CCO	-0.4	4.5
COc1ccc(C(C)=O)cc1CN1C(=O)C(C)ON=C1c1ccncc1 (stereo not drawn)	8.4	7.0
COc1ccc(C2SCCN2C(=O)C(C)C)c(OC)c1 (stereo not drawn)	-4.4	-2.4
CCCCC(=O)Nc1ccc(NC(=O)c2ccncc2Cl)cc1	18.2	5.8
CC(=O)Nc1cccc(CN(CCC(N)=O)c2ccc(F)cc2)c1	0.0	-2.1
O=C(c1ccoc1)N1CCC(N2CCCC(C(=O)N3CCOCC3)C2)CC1 (stereo not drawn)	4.4	1.6

Next part.
Compound	NPYLR7 agonist	NPYLR7 agonist max-min
Cc1nn(C)cc1C(C)Nc1nc(N)nc2[nH]ncc12 (stereo not drawn)	0.6	-2.0
CC(=O)c1cccc(CN2CCC(C(=O)Nc3cccc(-c4cccc(F)c4)c3)CC2)c1	13.3&0.3	9.7&-1.4
CC(C)Oc1ccc(C(=O)N(C)C2CCS(=O)(=O)C2)cc1 (stereo not drawn)	10.6	5.7
COc1ccc(CN2CCC2(C)C(=O)NC2CCN(C)CC2)c2ccccc12 (stereo not drawn)	-0.7	-10.3
NC(=O)CSc1ncnc2sc3c(c12)CCC3	3.7	0.8
CC1(C(=O)Nc2ccc(Cl)c(Cl)c2)CCN1C(=O)Cc1cccs1 (stereo not drawn)	-1.3	-1.5
Cc1cn(Cc2csc(C(C)C)n2)cc1C#N	-2.1	-2.2
C=CCSc1nnc(NC(=O)CCN2C(=O)C3CC=CCC3C2=O)s1 (stereo not drawn)	12.1	16.7
CC(C)NC(=O)N1CCN(c2ccncc2S(=O)(=O)N2CCOCC2)CC1	-4.0	-5.1
COc1cccc(Cc2nsc(N3CCCN(C(=O)C(c4ccccc4)c4ccccc4)CC3)n2)c1	6.5	12.6
C#CCOCC(O)CN(CCOC)Cc1ccsc1 (stereo not drawn)	17.4	24.2
